# Rce1 inh: yeast Ras-converting enzyme inhibition. yeast membranes, quenched prenylated peptide cleavage fluorescence. calls only. 290,000 compounds, 0.27% hits. AID 2563;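 active means fall in fluorescence gain of 50% or more versus controls, with final raw signal at or below 3038400; inconclusive means same 50% fall but final raw signal above 3038400; inactive means fall in fluorescence gain under 50%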;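 further: plate controls were neutral control wells for no effect and wells lacking membranes for full effect; tested at 10 µM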
# CSC inhib: cancer stem cell inhibition. cancer stem cell-like cells viability, luminescence. AID 2717. 300,000 compounds, 1.1% hits. inhibition, % at 7.5 µM;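 active means mean at 75% or more and at least half the replicates too; inconclusive means mean and replicates disagree; tested in HMLE shEcad cells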;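 further: 0% = median of negative and 100% = median of positive control wells; the first replicate is given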
# PABP FP inh: PABP-poly(A) binding inhibition | 290,000 compounds, 1% hits | inhibition, % at 35 µM | AID 2014 | PABP-poly(A) RNA binding, fluorescence polarization;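 active means 50% or more with normal probe brightness, or confirmed in later tests; inconclusive means above 50% with abnormal brightness, or retests that disagree; inactive means below 50% or failed in later tests; about a fifth of its hits are not listed in these tables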;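 further: calls also rest on retests at 20 µM and on dose response follow-up; controls were probe without protein and protein plus probe with vehicle; some compounds called inactive have numbers as strong as hits; many hits fall short of the cut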
# Target sequence (P11940 whole entry, looked up): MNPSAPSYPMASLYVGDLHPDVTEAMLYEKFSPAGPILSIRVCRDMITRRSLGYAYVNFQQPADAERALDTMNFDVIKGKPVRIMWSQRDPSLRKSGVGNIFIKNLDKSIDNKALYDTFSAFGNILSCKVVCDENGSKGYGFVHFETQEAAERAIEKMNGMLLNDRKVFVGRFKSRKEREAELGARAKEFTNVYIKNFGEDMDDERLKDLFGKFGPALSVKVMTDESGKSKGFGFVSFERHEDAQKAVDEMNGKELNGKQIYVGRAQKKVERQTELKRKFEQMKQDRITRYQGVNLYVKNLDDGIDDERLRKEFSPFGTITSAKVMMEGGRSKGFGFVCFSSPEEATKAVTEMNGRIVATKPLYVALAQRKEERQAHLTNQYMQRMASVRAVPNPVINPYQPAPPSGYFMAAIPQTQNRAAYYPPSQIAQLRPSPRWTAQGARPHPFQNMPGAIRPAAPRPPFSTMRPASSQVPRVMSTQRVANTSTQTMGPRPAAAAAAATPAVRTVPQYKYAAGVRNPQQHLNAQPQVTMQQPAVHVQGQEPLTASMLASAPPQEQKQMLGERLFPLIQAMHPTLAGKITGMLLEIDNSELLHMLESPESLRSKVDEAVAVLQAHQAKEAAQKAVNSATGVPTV
# eIF4H FP inh: inhibitors of RNA binding by human eIF4H. Q15056. eIF4H fluorescence polarization binding assay. inhibition, % at 35 µM. 290,000 compounds, 0.94% hits;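 active means 50% or more with normal probe brightness, or confirmed in later tests; inconclusive means above 50% with abnormal brightness, or retests that disagree; inactive means below 50% or failed in later tests; about a fifth of its hits are not listed in these tables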;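 further: calls also rest on retests at 20 µM and on dose response follow-up; 0% = protein and probe with vehicle and 100% = probe without protein; strong numbers were not always called active; many hits fall short of the cut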
# HIV Env fusion: HIV envelope-mediated fusion inhibition; HeLa-JRFL Env/CEM21 cell fusion, luciferase; inhibition, % at 12.3 µM; 360,000 compounds, 1.1% hits; AID 651610;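 active means mean replicate inhibition score of at least 50 and every replicate individually at or above 50; inconclusive means only one of the two criteria met; inactive means mean below 50 and not all replicates reaching 50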;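 further: 0% = plate neutral controls and 100% = maraviroc near 300 nM; one replicate is shown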
# UUG fidelity: alters start codon recognition fidelity in yeast; S. cerevisiae UUG-firefly luciferase reporter, luminescence/redox ratio; activity score, % at 18.7 µM; 350,000 compounds, 0.13% hits; AID 602363;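 active means replicate mean at a twofold rise or more, about +100% in these data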;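 further: firefly luciferase made from a UUG start codon reports start codon fidelity; reporter light over untreated wells divided by growth signal over untreated wells; some hits fall short of that in this replicate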
# MT1-MMP act inh: blocks activation of human MT1-MMP; P50281; HT1080 RFP-PRO-GFP cells, GFP/RFP ratio fluorescence, overnight; percent of plate control window, DMSO zero; GFP/RFP ratio change, % at 20 µM; 360,000 compounds, 0.061% hits; AID 651647;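 active means GFP/RFP ratio change of at least 30% with cell ATP level not reduced by more than half and red fluorescence within 50% of control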; further: strong numbers were not always called active
#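 Assay system: HT1080 cells carrying an RFP-PRO-GFP reporter | Dosing: Single dose of 20 µM compound, 1% DMSO final | Incubation: Cells overnight before dosing, compound overnight, 37 °C, 5% CO2 | Evaluation: GFP/RFP fluorescence ratio | Control set: DMSO and RFP-L50D-GFP cell wells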
# eIF4H FP inh retest: further read-out of eIF4H FP inh, marked with its call; inhibition, %; compound at 20 µM; confirmation average;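 mean of two retest wells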
# PABP FP inh retest: recorded beside PABP FP inh, whose call it bears; inhibition, %; compound at 20 µM; confirmation repeats;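 mean of two retest wells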
# MT1-MMP act inh RFP: recorded beside MT1-MMP act inh, whose call it bears; RFP signal change, %; measured here: RFP expression control read;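 0 = vehicle wells; hits needed this value within 50% of zero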
# The depositor's hits bear a star; i = inactive; ? = inconclusive; nt = no result given; & = joins results of further samples; [ ] = remark or other dose. The list is partial. The share of hits here may be higher or lower than overall.
SMILES,Rce1 inh,CSC inhib,PABP FP inh,eIF4H FP inh,HIV Env fusion,UUG fidelity,MT1-MMP act inh,MT1-MMP act inh RFP,others
CC(C)OC(=O)CSc1nnc(-c2ccccc2)n1N,i,1,-3,9,-55,-18,0,1,
Cc1nn(-c2nc3ccccc3[nH]2)c(=O)c2ccccc12,nt,97*,1,-5,72*,nt,2,2,
CC(C)(C)NC(=O)COC(=O)c1ccc(S(=O)(=O)N2CCCC2)cc1,i,-12,12,6,9,nt,-4,-2,
CC(=O)C1C(c2ccc(C)cc2)c2c(noc2C)CC1(C)O (configuration not stated),i,-4,2,4,3,nt,-1,3,
Brc1ccccc1-c1nnc(CSc2nncn2-c2ccccc2)o1,i,5,-2,1,-82,-20,0,-3,
C#CCN(C#N)c1nc(NCC)nc(NC(C)C)n1,i,-5,-3,-14,nt,10,-3,1,
CC1CCc2sc3ncnc(N4CCOCC4)c3c2C1 (configuration not stated),i,-8,-12,-3,nt,nt,-10,-8,
N#CCCN(C(=O)COC(=O)Cc1ccc(Br)cc1)c1ccccc1,nt,-1,2,-8,1,nt,-1,1,
O=C(/C=C/c1ccccc1)OCC(=O)N1CCN(c2ccccc2)CC1,i,-10,nt,nt,-2,5,3,1,
Cc1nnc(SCC(=O)NCc2ccc3c(c2)OCO3)n1C,i,2,8,-9,-16,nt,-5,-4,
C[C@H](CO)N1C[C@H](C)[C@@H](CN(C)S(=O)(=O)c2ccc(F)cc2)Oc2ccc(NC(=O)CCC(F)(F)F)cc2C1=O,nt,5,nt,nt,15[16.7 µM],-5&0,-2,2,
O=S(=O)(Nc1ccc2c(c1)nc1n2CCOC1)c1ccc(Cl)cc1,i,-10,-6,2,-25,-22,13,6,
Cc1c(NC(=O)COC(=O)/C=C/c2cccc(F)c2)c(=O)n(-c2ccccc2)n1C,nt,nt,nt,nt,21,3,0,3,
COc1ccc(NC(=O)C(C)NS(=O)(=O)c2ccccc2)cc1Cl (configuration not stated),i,8,-10,-7,nt,-15,1,3,
CCCCn1c(N)c(N(CC(C)C)C(=O)CC(NC(=O)c2ccccc2Cl)c2ccccc2)c(=O)[nH]c1=O (configuration not stated),nt,nt,nt,nt,-16,-3,3,3,
COC(=O)C1=C(C)N(c2cccc3ccccc23)C(=O)C1,i,6,0,-4,15,-16,-7,0,
Cc1ccc(-c2nnn(CC(=O)NCCc3ccc4c(c3)OCO4)n2)cc1,i,-11,10,1,-1,-13,-2,-3,
COC(=O)c1ccccc1NC(=O)Cn1nnc(-c2ccc3c(c2)OCO3)n1,i,3,13,0,-5,-26,2,4,
Cc1cc(C)c(N(C(=O)c2csnn2)C(C(=O)NC(C)(C)C)c2ccncc2)c(C)c1 (configuration not stated),i,-12,-8,-5,-17,nt,3,5,
Cc1ccc(C)c(NC(=O)c2ccc(S(=O)(=O)C(F)F)cc2)c1,i,1,-7,-13,6,nt,-1,4,
CCCCc1ncc(CN2CCC(n3nccc3NC(=O)c3ccccc3OC)CC2)[nH]1,i,-10,-6,-8,-3,-6,2,3,
O=C(Nc1nnc(S(=O)(=O)N2CCCCCC2)s1)c1ccccc1Cl,i,14,-10,-10,-10,-6,3,-4,
Cc1ccnc(N2C(=O)OC(C)(C)C2(C)O)c1 (configuration not stated),i,9,8,10,-82,-14,-4,5,
Fc1ccc(NC(=S)Nc2cccc3ccccc23)cc1F,i,37,17,13,9,-29,1,5,
C=CCn1c(=O)c2c3c(sc2n2c(Nc4ccc(OC)cc4)nnc12)CCCC3,nt,-16,6,-1,-34,-18,-1,-3,
N#C/C(=C\c1ccc(N2CCOCC2)o1)C(=O)NC1CCCCC1,i,2,?,?,-34,12,-132,0,
CCCCS(=O)(=O)N1CCC(C(=O)NCC2CCCO2)CC1 (configuration not stated),i,-14,-4,1,-3,-9,3,4,
CCOC(=O)/C(N=Nc1ccc(C(=O)O)cc1[N+](=O)[O-])=C(\C)O,i,-12,24,1,3,nt,2,4,
Cc1ccc(C(=O)NNC(=S)NC(=O)c2ccc(Cl)cc2)cc1,i,26,10,20,18,-6,3,-3,
Cc1ccc(NC(=S)NC(=O)C2CC2)cc1Cl,i,7,-6,-6,-13,-19,-1,3,
CC(C)CNC(=O)c1ccccc1SCC(=O)NC12CC3CC(CC(C3)C1)C2,i,-5,9,0,64*,nt,-3,-5,
CCc1c(C)sc(NC(=O)OC)c1C(=O)N1CCCCC1,i,-1,107,100,-2,-10,-7,7,eIF4H FP inh retest=-1;PABP FP inh retest=10
Cc1ccc(N(CCC#N)C(=O)CN2C(=O)NC(Cc3ccccc3)C2=O)cc1 (configuration not stated),i,nt,-10,-9,6,nt,0,1,
Cc1nnc(NC(=O)CCS(=O)(=O)c2ccccc2)s1,i,-6,12,12,0,-19,1,-1,
COc1cccc(NCCC(=O)c2cccc([N+](=O)[O-])c2)c1,i,20,0,5,-9,nt,3,-1,
Cc1cc(C)cc(-n2c(=O)c3ccccc3n(CC(=O)NCC3CCCO3)c2=O)c1 (configuration not stated),nt,-17,11,-2,-1,4,0,-4,
Cc1cccc(NCC(=O)N/N=C\c2ccccn2)c1,i,nt,-8,-7,2,nt,4,8,
CCOc1ccccc1NC(=O)COC(=O)c1ccc(S(=O)(=O)N2CCCC2)cc1,nt,nt,nt,nt,-13,-15,3,4,
CCOC(=O)c1c(CN2CCCCC2C)oc2ccc(OC)cc12 (configuration not stated),i,22,-4,-15,21,nt,3,-2,
COc1cc(NC(=O)Cc2ccc([N+](=O)[O-])cc2)c(C(=O)O)cc1OC,i,6,-9,11,-8,nt,5,6,
CCc1nc2ccccc2n1CCc1ccccc1,i,1,0,-4,9,nt,3,4,
CCc1cc2c(=O)c(-c3nc4ccccc4n3C)coc2c(CN2CCCCC2C)c1O (configuration not stated),i,nt,nt,nt,15,-15,3,3,
COc1ccc(S(=O)(=O)Nc2ccc(C(N)=O)cc2)cc1C(=O)N1CCCCCC1,i,-12,7,-8,30,-9,2,2,
COc1ccc(N(CC(=O)NCc2cccs2)S(=O)(=O)c2cccnc2)cc1,i,-10,-2,-4,20,-5,6,2,
CCOC(=O)[C@H]1[C@H]2COc3cc(OC)ccc3[C@@H]2N2C(=O)CN(Cc3ccc(OC)cc3)C(=O)[C@@]12C,nt,6,nt,nt,-22,12,nt,nt,
CCCCOC(=O)Cn1c(=O)c2c(nc3n2CCCCN3c2ccc(C)cc2)n(C)c1=O,i,-16,-1,8,nt,-8,1,-16,
CCS(=O)(=O)N1CCN(c2ccc([N+](=O)[O-])c(NCc3cccnc3)c2)CC1,i,-11,-3,-12,13,nt,-1,-2,
COc1ccc(CN2C(=O)CN=C2Nc2cc(C)ccc2C)cc1,i,12,9,-14,nt,-27,-4,-3,
CC(=O)Nc1ccc(C(=O)OC2CCOC2=O)cc1 (configuration not stated),i,-18,-2,-2,-45,-9,16,15,
CS(=O)(=O)N(CCc1ccccc1)CC(N)=O,i,-4,3,-11,nt,-16,2,2,
COc1ccccc1C1NC(=O)NC(C)=C1C(=O)OC1CCCCC1 (configuration not stated),i,-9,12,-3,10,-27,2,-6,
Cc1ccc(S(=O)(=O)N(C)C)cc1NC(=O)C1CCCCC1,i,-1,8,3,8,nt,0,-1,
CCOc1ccc(/C=N/NS(=O)(=O)c2ccc(C)cc2)cc1OC,i,-9,-2,-8,5,1,0,-3,
O=C(CCn1c(=O)sc2ccccc21)NCc1ccco1,i,nt,11,-1,nt,-12,2,-1,
CCOCC(=O)Nc1ccc(-c2cn3cccnc3n2)cc1,i,-8,0,2,-54,-16,7,-1,
O=[N+]([O-])c1ccccc1/C=N/n1c(COc2ccccc2)n[nH]c1=S,i,2,-4,-1,-30,-21,5,3,
O=C(CCSCc1cccc(F)c1)NCc1ccc(F)cc1,i,-14,2,-15,-9,-6,1,3,
O=C(NCc1ccc(F)cc1)C(=O)NCC1OCCN1S(=O)(=O)c1ccc2c(c1)OCCO2 (configuration not stated),i,11,3,3,19,-11,4,-5,
Cc1sc2ncn(CC(=O)NCCN3CCOCC3)c(=O)c2c1S(=O)(=O)N1CCC(C)CC1,i,0,10,4,nt,-9,5,6,
Cc1ccc(C(=O)CCC(=O)Nc2ccc(Cl)c(S(=O)(=O)Nc3cccc(Cl)c3)c2)cc1,i,-1,-10,-2,9,1,-2,-6,
# (continued)
SMILES,Rce1 inh,CSC inhib,PABP FP inh,eIF4H FP inh,HIV Env fusion,UUG fidelity,MT1-MMP act inh,MT1-MMP act inh RFP,others
CSc1ccccc1OCc1cc(C(=O)N(C)Cc2c(C)n[nH]c2C)no1,i,-13,0,0,nt,-8,-1,-6,
CCOC(=O)c1ccccc1NC(=O)CSc1nc2c(sc(=S)n2CC)c(=O)[nH]1,nt,nt,nt,nt,9,-9,-1,-1,
COc1cccc(-n2c(=O)c3sccc3n(CC(=O)NC3CCCCC3)c2=O)c1,i,5,3,-8,-8,-9,1,5,
O=C(CCS(=O)(=O)c1ccc2c(c1)NC(=O)CO2)NCCc1ccccc1,i,3,-10,-3,3,-13,0,3,
COc1ccc(OC)c(NC(=O)c2ccc(S(=O)(=O)N3CCN(C)CC3)cc2)c1,i,-22,-6,1,-4,5,3,-4,
CC(=O)c1cccc(NC(=O)C(C)OC(=O)/C=C/c2cccs2)c1 (configuration not stated),nt,nt,nt,nt,7,9,-1,1,
CC1Oc2ccccc2N(CC(=O)Nc2ccc3c(c2)OCCO3)C1=O (configuration not stated),i,-2,12,-7,-56,-21,-2,-3,
CCOc1ccc(Br)cc1C1C(C(=O)OC)=C(N)Oc2cc(N(C)C)ccc21 (configuration not stated),i,56,6,4,nt,-11,-19,-16,
Cc1ccc(S(=O)(=O)NNC(=O)C(O)(c2ccccc2)c2ccccc2)cc1,i,-2,-4,5,2,-9,-3,-2,
O=C(N/N=C/c1cc(Br)ccc1O)Nc1ccccc1,i,-6,10,3,-36,-7,7,-6,
CCN(CC)C(=O)N1CCN(C(=O)c2ccc(C)cn2)CC1,i,-11,6,1,nt,-1,5,7,
CSc1nnc(C)c(=O)n1COC(=O)COc1ccccc1,i,-15,8,-1,8,nt,0,1,
COc1ccc(-n2c(Cc3ccccc3)nnc2SCC(=O)N2CCCc3ccccc32)cc1,i,-10,21,-2,-33,-7,-10,-8,
COc1ccccc1CNC(=O)COC(=O)COc1ccccc1Cc1ccccc1,i,-9,nt,nt,-1,-20,3,5,
C/C(CC(=O)Nc1ccc(C)cc1C)=N\NC(=O)C(C)C,nt,-13,-4,8,2,nt,-6,-1,
COC(=O)c1cc(NC(=O)Cc2ccc(OC)c(OC)c2)cc(C(=O)OC)c1,i,-5,3,-8,nt,1,0,1,
CC(=O)c1cccc(N(C(=O)CNC(=O)c2ccco2)C(C(=O)NCc2ccco2)c2ccccc2)c1 (configuration not stated),i,17,-2,0,-8,nt,-4,0,
CCOC(=O)c1ccccc1NC(=O)c1ccc(N(C)S(C)(=O)=O)cc1,i,-2,7,-3,nt,3,1,3,
Cc1ccc(C(=O)N/N=C\c2ccc(OC(=O)c3cccs3)cc2)cn1,i,1,-7,13,25,nt,1,-1,
Cc1c(OCC(=O)OC(C)C)ccc2c3c(c(=O)oc12)CCC3,i,nt,8,-13,nt,45,-3,1,

# Assay outcomes deposited in PubChem by several laboratories.
